Cruzain Triton – cruzain (T. cruzi) inhibition with detergent | Potency, µM, for inactives: max response, negative = inhibition, usual class: inhibitors | purified cruzain, Z-FR-AMC fluorescence, 0.01% Triton | P25779 | 200,000 tested, 0.43% active | AID 1478;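 note: plate controls were neutral wells for no effect and buffer without enzyme for full effect; nearly all actives have a fitted effect of over 40% in size; top concentration of the series not given in the record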
Target sequence (P25779 123-467 limits assumed): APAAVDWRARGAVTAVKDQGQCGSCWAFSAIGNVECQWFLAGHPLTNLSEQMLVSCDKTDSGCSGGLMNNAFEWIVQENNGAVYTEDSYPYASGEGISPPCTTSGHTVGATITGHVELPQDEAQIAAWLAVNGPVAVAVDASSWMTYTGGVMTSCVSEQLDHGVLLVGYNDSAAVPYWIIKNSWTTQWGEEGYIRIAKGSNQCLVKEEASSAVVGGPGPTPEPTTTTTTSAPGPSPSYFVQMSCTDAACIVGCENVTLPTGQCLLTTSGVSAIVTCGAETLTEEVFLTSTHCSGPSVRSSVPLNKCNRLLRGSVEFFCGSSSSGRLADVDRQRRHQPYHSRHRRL
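Compounds were screened in titration against cruzain (1.5 nM) with 0.01% Triton X-100 to counter colloidal aggregation. Activity was the AMC fluorescence increase over 60 s after adding 2 uM Z-FR-AMC at pH 5.5.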
Cruzain noTriton – inhibitors of Trypanosoma cruzi cruzain without detergent; P25779; purified cruzain, Z-FR-AMC fluorescence, no detergent; Potency, µM, inactives show max response, negative = inhibition, usual class: inhibitors; 200,000 tested, 2.3% active;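 note: plate controls were enzyme without inhibitor for no effect and buffer without enzyme for full effect; nearly all actives have a fitted effect of over 40% in size; top concentration of the series not given in the record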
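Detergent-free condition (0.00005% Triton X-100) in acetate buffer pH 5.5 with DTT. 1.5 nM enzyme and compound were pre-mixed 15 min, then 2 uM Z-FR-AMC substrate added; reaction progress from fluorescence change between first and third reads (60 s).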
LASV entry inh – Lassa virus entry inhibition. Lassa virus pseudotype entry inhibition, cell reporter; control for the full effect not named in the record. Potency, µM (highest dose often 37.9 µM), for inactives: at the highest dose activity change, negative = inhibition, actives largely listed as inhibitors. 300,000 tested, 1.2% active. AID 540256; active means well fitted inhibition curve with a large enough effect; inconclusive means small, poorly fitted or top-dose-only effect, or effect the other way; inactive means flat fitted curve, though single readings scatter; tested in HEK293 cells; note: % is set by controls: 0 for no effect and ±100 for the full control effect; nearly all actives have a fitted effect of over 50% in size; luciferase read-out
SARS PLpro yeast – SARS-CoV PLP inhibition in yeast | S. cerevisiae expressing SARS-CoV PLpro, growth rescue; control for the full effect not named in the record | Potency, µM (top dose mostly 32.9 µM), for the others: top-dose activity, positive = growth rescue | 330,000 tested, 0.19% active | AID 485353; active means well fitted rising curve with a large enough effect; inconclusive means small, poorly fitted or top-dose-only effect; inactive means no such curve, though single readings can be large or run the other way; note: 0% is about no effect; nearly all actives have a fitted effect of over 55% in size; growth read by luminescence after 48 h
MARV entry inh – blocks Marburg virus binding to or entry into cells. 300,000 tested, 1.8% active. Potency, µM (highest dose often 37.8 µM), without a hit: at the top dose activity change, negative = inhibition, most hits filed as inhibitors. Marburg virus pseudotyped entry inhibition, cell reporter; control for the full effect not named in the record; about a third of the inactives were read at about 46 µM; active = well fitted inhibition curve with a large enough effect; inconclusive = small, poorly fitted or top-dose-only effect, or effect the other way; inactive = flat fitted curve, though single readings scatter; tested in HEK293 cells; about a fifth of its hits are not listed in these tables; note: % is set by controls: 0 for no effect and ±100 for the full control effect; luciferase read-out
2A StopGo – FMDV 2A StopGo reporter, luciferase signal | human cells with a luciferase reporter of 2A StopGo recoding; control for the full effect not named in the record | Potency, µM (doses to about 57.9 µM), without a hit: at the highest dose signal change, negative = less light | 410,000 tested, 1.2% active; active = well fitted falling curve with a large enough effect; inconclusive = small, poorly fitted or top-dose-only effect; inactive = no such curve, though single readings can be large or run the other way; tested in HEK293T cells; note: % is set by controls: 0 for no effect and ±100 for the full control effect; nearly all actives have a fitted effect of over 45% in size; luciferase light after 4 h
RE007 growth inh – less growth of the S. pombe RE007 Vpr strain. S. pombe RE007 Vpr strain, BacTiter-Glo ATP luminescence, 24 h; control for the full effect not named in the record. 360,000 tested, 0.21% active. Potency, µM (doses to about 92.2 µM), for inactives: at the highest dose activity change, negative = less growth; active = well fitted falling curve with a large enough effect; inconclusive = small, poorly fitted or top-dose-only effect; inactive = no such curve, though single readings can be large or run the other way;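 note: % is set by controls: 0 for no effect and ±100 for the full control effect; nearly all actives have a fitted effect of over 50% in size; the assay follows cell death caused by Vpr and the record does not say whether a fall means rescue or toxicity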
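Fission yeast RE007 carrying one integrated HIV-1 vpr copy, seeded at OD 0.01 in PMG+AL medium with 23 nL pinned compound. Grown 24 h at 30 degrees; viability read by BacTiter-Glo luminescence after 5 min.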
NS1 function inh – inhibitors of influenza NS1 protein function; 270,000 tested, 0.4% active; Potency, µM (doses to about 46.1 µM), inactives show at the highest dose activity, positive = more growth; S. cerevisiae slowed by influenza A NS1, growth recovery by OD600; active means well fitted rising curve with a large enough effect; inconclusive means small, poorly fitted or top-dose-only effect; inactive means no such curve, though single readings can be large or run the other way; note: nearly all actives have a fitted effect of over 50% in size
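Read-out: OD600 growth recovery of NS1-expressing budding yeast. Cells grown overnight at 30C in -URA glucose medium, washed, resuspended and diluted 1:100 in 2% galactose assay medium, pH 6.0. Same strain lacking NS1 served as positive control.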
Numbers without * were called inactive; & = joins results of further samples; [ ] = another dose, or the depositor's remark. Unless noted, calls come from the whole dose curve; as a rule, active = well fitted curve in the direction sought with a large enough effect; inconclusive = small, poorly fitted or top-dose-only effect, or another doubt; inactive = no such curve, though single readings can be large; an effect the other way counts as inactive or inconclusive. Potency is the fitted concentration of half-maximal effect.

Results for Cc1occc1-c1nnc(SCC(=O)c2ccc(F)cc2)n1Cc1ccco1 ?
Cruzain Triton: -2.6%; Cruzain noTriton: -14.5%; LASV entry inh: -11.8%; SARS PLpro yeast: 1.0%; MARV entry inh: 0.0%; 2A StopGo: -4.3%; RE007 growth inh: -4.4%; NS1 function inh: -2.2%

Results for COc1cccc(CNS(=O)(=O)/C=C/c2ccc3c(c2)OCO3)c1 ?
Cruzain Triton: -5.0%; Cruzain noTriton: -10.6%; LASV entry inh: 12.6%; SARS PLpro yeast: -5.1%; MARV entry inh: inconclusive; 2A StopGo: 23.7%; RE007 growth inh: -20.5%; NS1 function inh: -6.4%

Results for CCN(CC)S(=O)(=O)c1ccc(S(=O)(=O)N2CCN(CCC#N)CC2)cc1 ?
Cruzain Triton: -0.2%; Cruzain noTriton: -9.7%; SARS PLpro yeast: 11.5%; MARV entry inh: 0.0%; 2A StopGo: -0.1%; RE007 growth inh: 10.6%; NS1 function inh: 5.6%

How did Cc1ccc(-c2nnc(Oc3cccc(C)c3)c3ccccc23)cc1 do in these assays?
Cruzain Triton: -9.6%; Cruzain noTriton: 0.1%; LASV entry inh: -4.7%; SARS PLpro yeast: -13.7%; MARV entry inh: inconclusive; 2A StopGo: -12.7%; RE007 growth inh: -10.0%; NS1 function inh: 2.6%

What do the screens show for `CC(Sc1nc(O)c(-c2ccccc2)c(=O)[nH]1)C(=O)Nc1ccc(Cl)cc1` (stereo not drawn)?
LASV entry inh: -7.6%; SARS PLpro yeast: 0.9%; MARV entry inh: -11.6%[46.1 µM]; 2A StopGo: 22.2%; RE007 growth inh: 2.3%; NS1 function inh: 0.4%

How did COc1ccc([N+](=O)[O-])cc1NC(=S)NC(NC(=O)C(c1ccccc1)c1ccccc1)C(Cl)(Cl)Cl (stereo not drawn) do in these assays?
Cruzain Triton: 4.1%; Cruzain noTriton: 1.8%; LASV entry inh: inconclusive; SARS PLpro yeast: 2.9%; MARV entry inh: inconclusive; 2A StopGo: inconclusive; RE007 growth inh: 3.8%; NS1 function inh: -4.0%

How did CCOC(=O)C1CCCN(C(=O)CCC(=O)Nc2ccc3nc(N4CCOCC4)cc(C)c3c2)C1 (stereo not drawn) do in these assays?
Cruzain Triton: -6.7%; Cruzain noTriton: -1.3%; LASV entry inh: inconclusive; SARS PLpro yeast: -6.4%; MARV entry inh: 10.5%; 2A StopGo: 25.2%; RE007 growth inh: -8.9%; NS1 function inh: -46.0%

Results for Cc1ccc(C)c2nc3sc(C(=O)N4CCCc5ccccc54)c(N)c3cc12 ?
Cruzain Triton: 4.6%; Cruzain noTriton: 3.4%; LASV entry inh: inconclusive; SARS PLpro yeast: 4.2%; MARV entry inh: -9.6%; 2A StopGo: 16.2%; RE007 growth inh: -7.7%; NS1 function inh: inconclusive

What do the screens show for `Cc1ccc(C(=O)OCC(=O)NCc2cccc(Cl)c2)cc1S(=O)(=O)N1CCCCC1`?
LASV entry inh: -21.8%; SARS PLpro yeast: 3.7%; MARV entry inh: inconclusive; 2A StopGo: -12.0%; RE007 growth inh: -15.9%

What do the screens show for `CN(C)C(=O)c1ccc(NC(=O)COC(=O)C2CCN(S(=O)(=O)c3ccc4c(c3)OCCO4)CC2)cc1`?
LASV entry inh: 4.5%; SARS PLpro yeast: 2.0%; MARV entry inh: 5.1%; 2A StopGo: -13.6%; RE007 growth inh: 16.3%

What do the screens show for `O=C(COc1ccccc1)N1CCN=C1SCc1cccc(F)c1`?
SARS PLpro yeast: 0.6%; 2A StopGo: -16.7%; RE007 growth inh: -16.3%; NS1 function inh: -10.5%

Results for C#CC(C)(CC)NC(=O)Cn1nnc(-c2ccc(OCc3c(F)cccc3Cl)cc2)n1 (stereo not drawn) ?
Cruzain Triton: -2.2%; Cruzain noTriton: -25.4%; LASV entry inh: inconclusive; MARV entry inh: -6.2%[46.1 µM]; 2A StopGo: -27.2%

What do the screens show for `CC1CC(C)CN(c2ncnc3c2cnn3-c2ccc(Cl)cc2)C1` (stereo not drawn)?
Cruzain Triton: -6.8%; Cruzain noTriton: -8.9%; SARS PLpro yeast: 19.7%; 2A StopGo: 21.3%; RE007 growth inh: 4.3%; NS1 function inh: 0.1%

Results for CCCc1nc2oc3cc(OC)ccc3c(=O)c2c(=O)n1Cc1ccco1 ?
Cruzain Triton: -3.2%; Cruzain noTriton: -24.1%; LASV entry inh: -8.9%; SARS PLpro yeast: -0.6%; MARV entry inh: 11.8%; 2A StopGo: -22.4%; RE007 growth inh: 12.8%; NS1 function inh: -35.3%

How did Oc1ccc(Cl)cc1CNc1ccccn1 do in these assays?
LASV entry inh: inconclusive; SARS PLpro yeast: 1.0%; MARV entry inh: 4.4%[46.1 µM]; 2A StopGo: 16.0%; RE007 growth inh: -21.0%; NS1 function inh: -15.6%

How did O=C(Nc1nnc(C2COc3ccccc3O2)o1)c1ccc(F)cc1 (stereo not drawn) do in these assays?
Cruzain Triton: -4.8%; Cruzain noTriton: 4.4%; LASV entry inh: inconclusive; SARS PLpro yeast: inconclusive; MARV entry inh: inconclusive; 2A StopGo: 16.3%; RE007 growth inh: -17.2%; NS1 function inh: -32.1%

How did COc1ccc2c(C)cc(SCC(=O)NC3CCCCC3)nc2c1 do in these assays?
LASV entry inh: 7.6%[46.1 µM]; SARS PLpro yeast: 0.9%; MARV entry inh: 5.6%[46.1 µM]; 2A StopGo: 0.3%; RE007 growth inh: 2.7%

What do the screens show for `Nc1c(-c2cccs2)cnc2c(-c3ccc(F)cc3)cnn12`?
LASV entry inh: -23.9%[46.1 µM]; SARS PLpro yeast: -3.0%; MARV entry inh: inconclusive; 2A StopGo: inconclusive; RE007 growth inh: -6.4%; NS1 function inh: 1.0%

What do the screens show for `CCOC(=O)c1c(CN(CC)CC)oc2ccc(OC)cc12`?
Cruzain Triton: 2.1%; Cruzain noTriton: -23.3%; LASV entry inh: -0.3%; SARS PLpro yeast: -10.9%; MARV entry inh: -17.3%[46.1 µM]; 2A StopGo: -7.6%; RE007 growth inh: 0.5%; NS1 function inh: -3.7%

What do the screens show for `COc1ccc2cc3c(N)nn(C(=O)c4ccc(OC)c(OC)c4)c3nc2c1`?
Cruzain Triton: 0.3%; Cruzain noTriton: -17.5%; LASV entry inh: 18.7%[46.1 µM]; SARS PLpro yeast: 0.5%; MARV entry inh: -12.1%[46.1 µM]; 2A StopGo: -12.9%

How did Cc1cc(C(=O)NNC2CC(=O)N(c3ccc4ccccc4c3)C2=O)c(C)o1 (stereo not drawn) do in these assays?
LASV entry inh: -5.9%; SARS PLpro yeast: 1.2%; MARV entry inh: 0.0%; 2A StopGo: 0.2%; RE007 growth inh: 3.4%; NS1 function inh: -0.9%

What do the screens show for `COc1ccccc1-c1nnc(C2CCN(S(=O)(=O)c3ccc([N+](=O)[O-])cc3)CC2)o1`?
SARS PLpro yeast: -0.4%; 2A StopGo: inconclusive; RE007 growth inh: 2.7%; NS1 function inh: 3.1%

Results for CCOC(=O)c1c(C)[nH]c(C(=O)OCCOc2ccccc2C)c1C ?
Cruzain Triton: -11.0%; Cruzain noTriton: 16.9%; SARS PLpro yeast: 1.9%; 2A StopGo: 21.5%; RE007 growth inh: -5.9%; NS1 function inh: -2.2%

How did CC1=C(C#N)c2nc(N)c(C#N)c(C)c2/C1=C\c1ccc(OCC(=O)O)c(Cl)c1 do in these assays?
LASV entry inh: 2.0%; SARS PLpro yeast: 1.1%; MARV entry inh: -3.1%; 2A StopGo: -13.0%; RE007 growth inh: 49.9%; NS1 function inh: 10.4%

What do the screens show for `Cc1cccc(NS(=O)(=O)c2c(C)[nH]c(C)c2C(=O)N2CCCC2)c1`?
SARS PLpro yeast: 3.1%; 2A StopGo: 34.6%[activator]; RE007 growth inh: 12.6%; NS1 function inh: -3.8%

Results for COc1ccc(OCC(O)CN2CCOCC2)cc1 (stereo not drawn) ?
SARS PLpro yeast: 1.8%; 2A StopGo: 0.7%; RE007 growth inh: 1.0%; NS1 function inh: 5.5%

How did Cc1ccc(NC(=O)c2ccc(C(C)(C)C)cc2)cc1-n1cnnn1 do in these assays?
LASV entry inh: 10.0%[46.1 µM]; MARV entry inh: 0.4%[46.1 µM]; 2A StopGo: inconclusive; RE007 growth inh: -16.3%; NS1 function inh: -1.6%

What do the screens show for `COc1ccc(/C=C/c2cc(C(F)(F)F)[nH]c(=O)n2)cc1OC`?
LASV entry inh: inconclusive; SARS PLpro yeast: -1.1%; MARV entry inh: 10.2%[46.1 µM]; 2A StopGo: inconclusive; RE007 growth inh: -2.7%; NS1 function inh: 3.2%

Results for CCn1c(NCc2ccccn2)nc2ccccc21 ?
Cruzain Triton: -0.5%; Cruzain noTriton: -17.9%; LASV entry inh: 9.7%; SARS PLpro yeast: -26.4%; MARV entry inh: -3.8%; 2A StopGo: 46.2%[activator]; RE007 growth inh: 16.3%; NS1 function inh: -3.3%

How did C/C=C/C(=O)Nc1cccc(C2=NOC3(C2)C[C@H](C(N)=O)N(C(=O)/C=C/C)C3)c1 (stereo partly drawn) do in these assays?
SARS PLpro yeast: 2.1%; 2A StopGo: -6.6%; RE007 growth inh: 8.3%; NS1 function inh: 3.6%

How did COc1cc(NC(=O)Cn2c(C)cc3ccccc3c2=O)cc(OC)c1OC do in these assays?
Cruzain Triton: -1.7%&7.2%; Cruzain noTriton: 5.3%&7.3%; LASV entry inh: inconclusive; SARS PLpro yeast: 12.6µM*; MARV entry inh: -28.4%[46.1 µM]; 2A StopGo: -16.8%&-24.3%; RE007 growth inh: -7.9%; NS1 function inh: 3.3%

What do the screens show for `Cc1cc(C)c(OCC(=O)Nc2cccc(-c3nc4ncccc4o3)c2)c(Br)c1`?
Cruzain Triton: -3.0%; Cruzain noTriton: 6.0%; LASV entry inh: inconclusive; MARV entry inh: 3.5%[46.1 µM]; 2A StopGo: -12.7%

How did CN1CCN(C(=O)c2cc3c(s2)-c2ccccc2S(=O)(=O)C3)CC1 do in these assays?
Cruzain Triton: -2.0%; Cruzain noTriton: -1.4%; SARS PLpro yeast: -2.9%; 2A StopGo: 9.9%; RE007 growth inh: 5.3%; NS1 function inh: -10.4%

Results for O=c1c2ccccc2nc(/C=C/c2cccnc2)n1Cc1ccccc1 ?
LASV entry inh: inconclusive; SARS PLpro yeast: -2.9%; MARV entry inh: inconclusive; 2A StopGo: -16.3%; RE007 growth inh: 7.4%; NS1 function inh: -5.0%
